Bioassay records deposited in PubChem by National Center for Advancing Translational Sciences (NCATS).
RE007 growth inh: less growth of the S. pombe RE007 Vpr strain. S. pombe RE007 Vpr strain, BacTiter-Glo ATP luminescence, 24 h; control for the full effect not named in the record. Potency, µM (titrated, usually from 92.2 µM), for the others: at the top dose activity change, negative = less growth. actives 0.21% (n = 360,000). AID 651644; active = well fitted falling curve with a large enough effect; inconclusive = small, poorly fitted or top-dose-only effect; inactive = no such curve, though single readings can be large or run the other way;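 further: on the % scale 0 is the no-effect control and ±100 the full control effect; nearly all actives have a fitted effect of over 50% in size; the assay follows cell death caused by Vpr and the record does not say whether a fall means rescue or toxicity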
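Fission yeast RE007 carrying one integrated HIV-1 vpr copy, seeded at OD 0.01 in PMG+AL medium with 23 nL pinned compound. Grown 24 h at 30 degrees; viability read by BacTiter-Glo luminescence after 5 min.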
StopGo reporter: lowers the luciferase signal of an FMDV 2A StopGo reporter. human cells with a luciferase reporter of 2A StopGo recoding; control for the full effect not named in the record. Potency, µM (titrated, usually from 57.9 µM), for the others: at the highest dose signal change, negative = less light. AID 1159524. actives 1.2% (n = 410,000); active = well fitted falling curve with a large enough effect; inconclusive = small, poorly fitted or top-dose-only effect; inactive = no such curve, though single readings can be large or run the other way; tested in HEK293T cells; further: on the % scale 0 is the no-effect control and ±100 the full control effect; nearly all actives have a fitted effect of over 45% in size; luciferase light after 4 h
SARS PLpro yeast: blocks SARS-CoV papain-like protease in a yeast assay; S. cerevisiae expressing SARS-CoV PLpro, growth rescue; control for the full effect not named in the record; Potency, µM (series often up to 32.9 µM), for inactives: at the highest dose activity, positive = growth rescue; actives 0.19% (n = 330,000); AID 485353; active means well fitted rising curve with a large enough effect; inconclusive means small, poorly fitted or top-dose-only effect; inactive means no such curve, though single readings can be large or run the other way; further: 0% is about no effect; nearly all actives have a fitted effect of over 55% in size; growth read by luminescence after 48 h
Numbers without * were called inactive; ? = inconclusive; [ ] = another dose, or the depositor's remark. Potency means the concentration at half of the fitted maximal effect. These rows are one share of the data. The share of hits here may be higher or lower than overall.

Order of values: RE007 growth inh	StopGo reporter	SARS PLpro yeast
CCOC(=O)c1ccc(S(=O)(=O)N2CCC(C(=O)NCC3CCCCC3)CC2)cc1
 : -2%	?	-1%
CC(C)CC[C@@H](O)[C@](C)(O)C1CC[C@@]2(O)C3=CC(=O)[C@@H]4C[C@@H](O)[C@@H](O)C[C@]4(C)C3CC[C@]12C (stereo partly drawn)
 : 4%	-11%	-6%
COc1cc(OC)c(C(=O)OCC(=O)Nc2c(C)n(C)n(-c3ccccc3)c2=O)cc1OC
 : -1%	-5%	1%
Cc1ccc(C2=N/C(=C\c3ccc(F)cc3)C(=O)N2)cc1
 : -8%	48%[activator]	-5%
COC(=O)C1=C(c2ccccc2OCc2ccccc2)C[C@@H]2CC[C@H]1N2C(=O)NCc1ccc(F)cc1
 : 3%	-29%	3%
COC(=O)CSC(=S)N1C(C)CCCC1C (stereo not drawn)
 : 14%	-19%	0%
Nc1cc(Cl)ccc1C(=O)OCC(=O)NCc1cccs1
 : -1%	32%[activator]	-6%
O=C(Cc1csc(NC(=O)c2ccccc2)n1)NO
 : -4%	4%	0%
O=C(NCc1cccc(OC(F)(F)F)c1)c1cccc2c1C(=O)c1ccc(-c3ccc(F)cc3OCc3ccccc3)cc1S2(=O)=O
 : -15%	-18%	3%
CCN(CC(=O)NCc1cccs1)CC(=O)Nc1cccc(S(N)(=O)=O)c1
 : 4%	-20%	-3%
Cc1ccc(CONS(=O)(=O)c2cc(C)ccc2C)cc1
 : -4%	32%[activator]	3%
Cc1ccc(-c2noc(Cn3cc(S(=O)(=O)N4CCCC4)ccc3=O)n2)cc1
 : 3%	33%[activator]	-31%
CC(C)(C)OC(=O)COc1cc(F)ccc1[N+](=O)[O-]
 : 1%	-20%	0%
O=C(COC(=O)CCN1C(=O)C2CC=CCC2C1=O)Nc1ccc([N+](=O)[O-])cc1 (stereo not drawn)
 : -3%	-6%	2%
CCOc1ccc(OCC(=O)OCc2cc(=O)n3cc(Br)ccc3n2)cc1
 : -6%	-18%	-9%
COc1cc(OC)cc(-c2c(-c3cccs3)c3cc(-c4ccc(OC)nc4)ccc3n2C)c1
 : 13%	-26%	-4%
CCC(=O)N(C1=C(NC)C(=O)c2ccccc2C1=O)C(C)C
 : -7%	-17%	0%
COc1cccc2sc3cc(C#Cc4ccccn4)ccc3c(=O)c12
 : -5%	41%[activator]	-1%
Cc1ccccc1C(=O)N1CCC(C(=O)N(CC(C)C)c2c(N)n(CC(C)C)c(=O)[nH]c2=O)CC1
 : 1%	-14%	-3%
CCC(C)NC(=O)c1ccc(C(=O)c2ccccc2)cc1 (stereo not drawn)
 : -19%	38%[activator]	3%
COc1cccc(C#Cc2c(CO)[nH]c3ccccc23)c1
 : -2%	0%	1%
C/C(=N\O)c1ccco1
 : 0%	-12%	4%
O=C(NCC1CCCCC1)c1ccc(F)c(S(=O)(=O)N2CCOCC2)c1
 : -3%	-22%	-14%
O=C1CC[C@@H](C(=O)N2CSC[C@H]2C(=O)O)N1
 : -11%[18.4 µM]	-13%	0%
Cc1ncn(-c2ccccc2)c1-c1ccccc1
 : -10%	-28%	-1%
CC(C)c1ccc(NC(=S)N2CCN(Cc3ccccc3)CC2)cc1
 : 14%	59%[activator]	-2%
COc1ccccc1NC(=O)c1ccc(NC(=O)c2ccc(=O)[nH]c2)cc1
 : -3%	-6%	-5%
COc1ccc(N(/N=C2\Sc3ccccc3C2=O)C(C)=O)cc1
 : -1%	14%	-7%
COC(=O)[C@H](CC(C)C)NC(=O)Cn1cnc2c(OCc3ccccc3)ncnc21
 : 4%	-14%	1%
COc1ccc([C@H]2CC(=O)C=C(c3cccc(C(F)(F)F)c3)C2)cc1
 : 9%	4%	2%
CCOC(=O)c1ccc(NNC(=O)CC)c([N+](=O)[O-])c1
 : -20%	-6%	0%
CCOC(=O)CCCCCC(=O)Nc1ccc2c(c1)CC(=O)N([C@H](C)CO)C[C@@H](C)[C@H](CN(C)Cc1ccc3c(c1)OCO3)O2
 : -22%	-16%	0%
Cc1cccc(OCCNC(=O)c2ccc(Cl)c(S(=O)(=O)NCc3cccnc3)c2)c1
 : -14%	-16%	1%
Cc1ccc(S(=O)(=O)N2CCCCC2)cc1C(=O)N1CCN(CCO)CC1
 : -18%	-23%	-14%
Cc1c(C(=O)NCc2n[nH]c(=S)n2-c2ccc(F)cc2)cccc1[N+](=O)[O-]
 : 9%	7%	-1%
Cc1nnc(NC(=O)c2ccc(S(=O)(=O)N3CCc4ccccc4C3)cc2)o1
 : 18%	-6%	1%
Cc1ccccc1CN1CCN(C(=O)c2ccc(S(=O)(=O)NCc3ccco3)cc2)CC1
 : 16%	-20%	-13%
CCN(CC)c1ccc(/C=N/N2CC(=O)NC2=S)cc1
 : 0%	15%	0%
CCCc1ccc(S(=O)(=O)N2CCN(C(C)C(=O)NCc3ccc(OC)cc3)CC2)cc1 (stereo not drawn)
 : -13%	-4%	1%
Cc1ccc2c(c1)[C@H]1[C@H](CO2)[C@H](c2ccccc2)[C@]2(C)C(=O)NCC(=O)N12
 : -24%	9%	1%
O=C(Nc1cc(Cl)ccc1N1CCOCC1)c1ccncc1
 : -14%	-26%	-3%
CO[C@H]1/C=C/O[C@@]2(C)Oc3c(C)c(O)c4c(O)c(c(C=NN5CCN(C)CC5)c(O)c4c3C2=O)NC(=O)/C(C)=C\C=C\[C@H](C)[C@H](O)[C@@H](C)[C@@H](O)[C@@H](C)[C@H](OC(C)=O)[C@@H]1C
 : -15%[18.4 µM]	-4%	-3%
C=C(Br)CN1[C@@H](Cc2ccccc2)[C@H](O)[C@@]23C=C[C@@H](C[C@@H]2S1(=O)=O)O3
 : -1%	4%	-8%
Cc1cccc(NC(=O)CNC(=O)C(NC(=O)Cc2ccccc2)C(C)C)c1C (stereo not drawn)
 : 23%	-17%	-4%
CC(C)Nc1nnc(SC(C)C(=O)Nc2ccc(N3CCOCC3)cc2)s1 (stereo not drawn)
 : -11%	5%	-3%
COc1ccc2c(c1)CC[C@@H]1[C@@H]2CC[C@]2(C)[C@@H](C(=O)O)C[C@@H]12
 : -14%	-7%	1%
O=C(CN1CCN(C(=O)CNC(=O)c2ccc3c(c2)OCO3)CC1)Nc1cccc(F)c1
 : 0%	4%	7%
COc1ccc(CCNC(=O)C2=CC=CN3CCS(=O)(=O)N=C23)cc1
 : 9%	-2%	1%
O=c1oc(CCO)cc2ccc(Br)cc12
 : 12%	-6%	0%
Cc1cc(C)c(C)c(S(=O)(=O)Nc2ccc3cn[nH]c3c2)c1C
 : 15%	-10%	7%

Whole records, quoted from the list.
`CO[C@H]1/C=C/O[C@@]2(C)Oc3c(C)c(O)c4c(O)c(c(C=NN5CCN(C)CC5)c(O)c4c3C2=O)NC(=O)/C(C)=C\C=C\[C@H](C)[C@H](O)[C@@H](C)[C@@H](O)[C@@H](C)[C@H](OC(C)=O)[C@@H]1C` reads RE007 growth inh: -15%[18.4 µM]; StopGo reporter: -4%; SARS PLpro yeast: -3%
`CCOC(=O)CCCCCC(=O)Nc1ccc2c(c1)CC(=O)N([C@H](C)CO)C[C@@H](C)[C@H](CN(C)Cc1ccc3c(c1)OCO3)O2` reads RE007 growth inh: -22%; StopGo reporter: -16%; SARS PLpro yeast: 0%

Results in RE007 growth inh (two entries from above):
molecule	RE007 growth inh
O=C(CN1CCN(C(=O)CNC(=O)c2ccc3c(c2)OCO3)CC1)Nc1cccc(F)c1	0%
C=C(Br)CN1[C@@H](Cc2ccccc2)[C@H](O)[C@@]23C=C[C@@H](C[C@@H]2S1(=O)=O)O3	-1%

The list goes on.
Order of values: RE007 growth inh	StopGo reporter	SARS PLpro yeast
CN1CCN(c2ccc(S(=O)(=O)N3CCOCC3)cc2NC(=O)Cc2ccccc2F)CC1
 : -4%	2%	-1%
CSc1ncccc1C(=O)OCC(=O)N1CCN(C(=O)c2ccco2)CC1
 : -3%	5%	5%
O=C(Cn1c(=O)cnc2ccccc21)Nc1cccc(S(=O)(=O)N2CCOCC2)c1
 : -11%	-12%	-28%
CC(C)(C)C1CCC(CN2C(Nc3ccccc3)=NC[C@@H]2Cc2ccccc2)CC1 (stereo partly drawn)
 : 10%	?	1%
Cc1c(C(=O)NNC(=O)c2ccncc2)oc2ccccc12
 : -7%	-4%	-2%
CC(Oc1cccc(Br)c1)C(=O)NNC(=O)c1ccccn1 (stereo not drawn)
 : ?	0%	-33%
CCCCN1C(=N)N([C@@H](C)CN2CCC[C@H]2CN2C(N)=NC[C@@H]2Cc2ccccc2)C[C@H]1[C@H](C)CC
 : 0%	14%	4%
CN(C)c1ccc(C(=O)NCC(c2cccs2)N2CCOCC2)cc1 (stereo not drawn)
 : -1%	27%	3%
O=C1COc2ccc(C(=O)CSc3ccc(Br)cc3)cc2N1
 : -1%	?	-4%
C/C(=N\OCc1ccc(C#N)cc1)c1ccccc1
 : -2%	87%[activator]	-5%
O=C(CCCOc1ccccc1)NNC(=O)c1ccc(Cl)cc1
 : 1%	-2%	1%
Cc1cc(S(=O)(=O)NC[C@H]2O[C@@H](n3cnc4c(N)ncnc43)[C@H](O)[C@@H]2O)c(C)s1
 : -19%	-12%	0%
COc1ccc(NC(=O)CSc2nnc(C)n2C2CC2)cc1S(=O)(=O)N1CCOCC1
 : -11%	-16%	5%
CN(C(=O)CSc1n[nH]c(N)n1)C1CCCCC1
 : 6%	-15%	-5%
CC(NC(=O)c1cccc(S(=O)(=O)N(C)c2ccccc2)c1)c1cccnc1 (stereo not drawn)
 : 5%	?	6%
COc1ccc([C@H]2CC(=O)C=C(c3cccc(OC)c3OC)C2)cc1OC
 : -1%	?	-5%
COc1ccc(NC(=O)N(C)C[C@H]2Oc3c(NS(=O)(=O)c4ccc(F)cc4)cccc3C(=O)N([C@H](C)CO)C[C@@H]2C)cc1
 : -3%	34%[activator]	7%
CSCCC1NC(=O)N(CC(=O)Nc2cc(C)on2)C1=O (stereo not drawn)
 : 3%	-22%	3%
Cc1ccc(S(=O)(=O)Nc2ccc(C(=O)NCCCn3ccnc3)cc2)cc1[N+](=O)[O-]
 : -4%	-8%	10%
COc1ccc(S(=O)(=O)N2CCN(CC(O)CN3CCOCC3)CC2)cc1 (stereo not drawn)
 : 4%	-10%	3%
COc1ccc(S(=O)(=O)Nc2ccc3c(c2)C(=O)N([C@H](C)CO)C[C@H](C)[C@@H](CN(C)C(=O)Nc2c(C)noc2C)O3)cc1
 : -11%	-7%	7%
O=C(NCc1n[nH]c(=S)n1Cc1ccccc1)c1ccc(Cl)cc1Cl
 : -9%	-8%	4%
COc1ccc(S(=O)(=O)N(C)C)cc1NC(=O)CSC(C)C(=O)Nc1cc(C)on1 (stereo not drawn)
 : 0%	0%	1%
C=CC[C@@H](CC(=O)N(CCO)Cc1ccccc1)C(=O)N[C@H](COC(=O)[C@@H](CC=C)CC(=O)OC(C)(C)C)C(C)(C)C
 : 2%	-22%	4%
O=C(Nc1ccccc1N1CCOCC1)c1cccc(S(=O)(=O)Nc2ccccc2F)c1
 : 11%	58%[activator]	-3%
C#CCOCCOCCOCCNc1nc(N2CCN(C(=O)CCCCCCCCCCNC(=O)[C@H](CO)n3cc(CCCSC)nn3)CC2)nc(N2CCN(C(=O)CCCCCCCCCCNC(=O)[C@H](CCCN=C(N)N)n3cc(C[C@@H](C)CC)nn3)CC2)n1
 : -12%	?	0%
COC(=O)c1ccccc1S(=O)(=O)N1CCC(C(=O)NCc2ccco2)CC1
 : 5%	-16%	-3%
COc1ccc(N2CCC(CNC(=O)Nc3ccc(Cl)cc3)C2)cc1 (stereo not drawn)
 : -18%	29%	-5%
CC(C)(C)OC(=O)C[C@@H]1C/C=C\C[C@@H](CC(=O)N[C@@H](CO)Cc2ccccc2)C(=O)N2CCC[C@@H]2COC1=O
 : -3%	0%	-6%
O=C(Nc1ccc(NC(=O)c2ccc3c(c2)OCO3)cc1)c1cccc(Cl)c1
 : 15%	-5%	-4%

Looked up above.
COc1ccc(N2CCC(CNC(=O)Nc3ccc(Cl)cc3)C2)cc1 (stereo not drawn) | RE007 growth inh: -18%
O=C(Nc1ccccc1N1CCOCC1)c1cccc(S(=O)(=O)Nc2ccccc2F)c1 | SARS PLpro yeast: -3%
C=CC[C@@H](CC(=O)N(CCO)Cc1ccccc1)C(=O)N[C@H](COC(=O)[C@@H](CC=C)CC(=O)OC(C)(C)C)C(C)(C)C | StopGo reporter: -22%
